MLL AF4-AF9 inh = blocks AF4 peptide binding to human AF9 | P42568 | inhibition, % at 10 µM | hit rate 0.47% among 350,000 | AlphaScreen, biotin-AF4 peptide binding to FLAG-AF9;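 active = every replicate reaching a set inhibition limit, whatever the replicate mean, cut at about 25% in these data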;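 note: 0% = plate neutral control median and 100% = total signal loss; the record names both 10 and 1 µM as test concentration; the first replicate is given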
Target sequence (P42568 whole entry, looked up): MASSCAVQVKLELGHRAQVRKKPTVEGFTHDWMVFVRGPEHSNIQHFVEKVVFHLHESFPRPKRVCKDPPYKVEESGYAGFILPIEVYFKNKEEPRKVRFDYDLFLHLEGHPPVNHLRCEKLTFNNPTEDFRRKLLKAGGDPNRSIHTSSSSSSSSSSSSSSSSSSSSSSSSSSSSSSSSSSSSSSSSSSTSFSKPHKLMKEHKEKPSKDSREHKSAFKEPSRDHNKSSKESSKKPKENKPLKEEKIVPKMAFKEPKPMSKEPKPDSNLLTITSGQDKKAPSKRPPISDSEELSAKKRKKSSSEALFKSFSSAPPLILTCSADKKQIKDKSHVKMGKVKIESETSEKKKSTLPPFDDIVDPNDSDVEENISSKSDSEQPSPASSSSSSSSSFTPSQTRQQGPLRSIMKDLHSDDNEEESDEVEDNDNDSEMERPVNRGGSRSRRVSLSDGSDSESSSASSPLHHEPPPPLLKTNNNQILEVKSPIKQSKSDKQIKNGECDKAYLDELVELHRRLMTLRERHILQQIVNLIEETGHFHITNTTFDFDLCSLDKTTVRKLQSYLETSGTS
Ecoli rRNA inh = inhibits bacterial ribosomal RNA function over humanized ribosomes | E. coli WT GFP vs humanized-ribosome RFP mutants, fluorescence, 24 h; hits give low values; DMSO median 0, no signal -100 | GFP signal change (wild-type ribosome), % (concentration not given with the values) | hit rate 1.6% among 350,000 | AID 720706;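 active = significant combined selectivity score with lowered wild-type GFP, culture density cut under 30%, mutant RFP and density less affected; inactive = any of these conditions unmet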; note: one replicate is shown; some compounds called inactive have numbers as strong as hits
Beta cell apopt = beta cell apoptosis inhibition; INS-1E cytokine-induced death, ATP luminescence, 48 h; percent of positive-control rescue, neutral wells zero; protection from apoptosis, % (concentration not given with the values); hit rate 0.8% among 300,000; AID 435005;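 active = all replicates at 75% or more, or half of them and the mean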;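 note: 0% = cytokine-treated negative control wells and 100% = positive control rescue; higher means more ATP so stronger rescue from cytokine killing; wells of about 40 µL received 100 nL stock; the first replicate is given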
FGF22 binding = shifts melting point of recombinant human FGF22 | recombinant FGF22 thermal shift, SYPRO orange fluorescence; percent of sucrose octasulfate shift, DMSO zero | Q9HCT0 | calls only at 9.99 µM | hit rate 1.5% among 340,000;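 active = melting point raised past a set limit in the mean and every replicate; three in four hits are not shown here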
Target sequence (Q9HCT0 whole entry, looked up): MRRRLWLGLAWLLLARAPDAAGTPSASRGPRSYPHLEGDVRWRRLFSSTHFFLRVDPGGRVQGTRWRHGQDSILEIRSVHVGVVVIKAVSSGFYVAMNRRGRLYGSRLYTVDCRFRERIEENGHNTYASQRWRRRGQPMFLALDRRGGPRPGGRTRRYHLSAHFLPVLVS
T cruzi inh = T. cruzi replication inhibition; inhibition, % (test concentration not listed); hit rate 1.4% among 300,000; T. cruzi beta-gal in NIH3T3, luminescence, 90 h;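 active = mean inhibition across valid replicates above about 55%, limit read from the data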;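 note: signal also drops with host cell toxicity which is not excluded here; 0% = plate median of DMSO wells and 100% = zero luminescence signal; higher percent means less beta-gal luminescence so fewer parasites; stock transfer was 50 nL into about 50 µL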
E coli growth = E. coli growth inhibition. hit rate 0.21% among 330,000. AID 1053175. OD600 absorbance (no concentration beside the values). Escherichia coli growth, OD600, 23 h; hits give low values;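 active = OD600 absorbance below the run mean of sample wells minus 3.6 SD, in any replicate, cut at about 0.56 in these data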;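 note: stock transfer was 300 nL into about 60 µL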
UCH37 DUB inh = blocks the human deubiquitinase UCH37; Q9Y5K5; purified proteasome/UCH37, Ub-AMC cleavage fluorescence; inhibition, % (concentration not given with the values); hit rate 0.33% among 330,000;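 active = mean of two replicates above 20%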;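 note: 0% = compound-free wells with enzyme and 100% = wells lacking proteasome; stock transfer was 100 nL into about 20 µL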
Target sequence (Q9Y5K5 whole entry, looked up): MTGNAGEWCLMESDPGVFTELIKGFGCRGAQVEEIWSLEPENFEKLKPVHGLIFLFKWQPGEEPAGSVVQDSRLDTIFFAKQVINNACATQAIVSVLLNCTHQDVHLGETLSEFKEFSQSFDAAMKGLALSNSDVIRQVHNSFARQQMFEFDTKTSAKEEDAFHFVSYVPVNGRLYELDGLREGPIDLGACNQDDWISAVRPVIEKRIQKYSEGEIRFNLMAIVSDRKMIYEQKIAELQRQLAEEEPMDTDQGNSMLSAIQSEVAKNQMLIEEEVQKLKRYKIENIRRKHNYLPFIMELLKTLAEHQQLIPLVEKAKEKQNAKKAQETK
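Test system – human UCH37 enzyme supplied as purified proteasome complex · Incubation – 30 min preincubation with enzyme, 25 min cleavage at room temperature · Detection – AMC fluorescence from Ub-AMC cleavage, excitation 355 nm, emission 460 nm · Benchmarks – no-proteasome wells (full inhibition) and compound-free wells (no inhibition)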
Bfl-1 A1 inh = inhibitors of the anti-apoptotic protein A1, read as caspase activation; hit rate 0.066% among 330,000; caspase activation, % (test concentration not listed); MEF A1-2A-BIM cells, Caspase-Glo 3/7 luminescence, 3 h; percent of clofoctol response, vehicle zero;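 active = over half of replicate activation scores above 10%, or exactly half above 10 with the replicate mean above 10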;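 note: wells of about 30 µL received 50 nL stock; many hits fall short of the cut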
Ecoli rRNA inh OD600 = further read-out of Ecoli rRNA inh, marked with its call; OD600 change, %; measured here: OD600 growth;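 optical density of the mix in the first replicate; 0 = DMSO median and -100 = no signal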
Ecoli rRNA inh RFP = further read-out of Ecoli rRNA inh, marked with its call; RFP signal change, %; measured here: RFP humanized mutant strains;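 first replicate; 0 = DMSO median and -100 = no signal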
The depositor's hits bear a star; i = inactive; / = no result given. These rows are one share of the data. The share of hits here may be higher or lower than overall.

SMILES	MLL AF4-AF9 inh	Ecoli rRNA inh	Ecoli rRNA inh OD600	Ecoli rRNA inh RFP	Beta cell apopt	FGF22 binding	T cruzi inh	E coli growth	UCH37 DUB inh	Bfl-1 A1 inh
COc1ccccc1NC(=O)CSc1nnc(-c2ccc(C)cc2)o1	/	/	/	/	8	/	-12	0.69	6.0	-1.2
CC1=C(C(=O)N2CCOCC2)C(c2c(C)cc(C)cc2C)NC(=S)N1 (stereo not given)	-6.0	18	23	0.8	-7	i	11	0.74	2.2	0.9
O=C(COc1ccc(C(=O)c2ccccc2)cc1)Nc1ncccc1O	-7.0	0	-20	1.5	-1	i	-8	0.71	1.4	0.2
O=C(NCc1ccco1)C1CCCN1C(=O)Nc1ccccc1[N+](=O)[O-] (stereo not given)	0.7	4	11	-0.1	-5	i	3	0.64	3.2	0.2
COc1cccc(C(=O)Nc2nc(-c3ccncc3)cs2)c1	-0.5	5	14	5.2	1	i	35	0.69	-0.1	-0.4
CCC(C)Nc1nc(Cl)nc(NCCOc2ccccc2)n1 (stereo not given)	-3.9	2	1	-3.4	4	i	16	0.7	1.8	-0.3
COc1ccc(S(=O)(=O)N2CCC(C(=O)NCc3ccccn3)CC2)cc1OC	/	/	/	/	-1	/	-13	0.68	5.1	-0.3
COc1ccc2nc(SCC(=O)NCC3CCCO3)c(C#N)cc2c1 (stereo not given)	-11	10	11	1.9	1	i	0	0.64	-18	0.1
COCCCN(C(=O)c1ccc(-c2ccc(C(C)=O)cc2)o1)c1c(N)n(CC(C)C)c(=O)[nH]c1=O	0.5	10	17	-0.6	/	i	/	0.7	-42	/
COc1ccc(N(C)S(=O)(=O)c2cccc(C(=O)Nc3cccc(C(=O)NC4CC4)c3)c2)cc1	2.0	-16	-27	2.0	-6	i	/	0.71	1.1	0.4
Cn1c(=O)[nH]c(=O)c2c1nc(Br)n2CC(O)COCc1ccccc1 (stereo not given)	/	/	/	/	/	/	-1	0.7	2.5	1.8
CCC(=O)Oc1ccc(C2N(C(=O)CC)CCN2S(=O)(=O)c2ccc(C)cc2)cc1OC (stereo not given)	/	/	/	/	-2	/	4	0.69	1.2	-0.7
COc1cc(NS(=O)(=O)c2ccc(N/C=C\C(=O)c3ccc(F)cc3)cc2)nc(OC)n1	1.0	0	-1	5.8	0	i	7	0.63	-116	0.3
CNCc1ccccc1Sc1cc(O)ccc1O	/	/	/	/	-2	/	/	0.64	3.7	0.5
COc1ccc(C(=O)NCc2nnc(SCC(=O)N3CCc4ccccc43)o2)cc1OC	/	/	/	/	-4	/	3	0.76	4.1	-1.3
CC(=O)Nc1ccc(NC(=O)C2CCCN2C(=O)Nc2ccccc2[N+](=O)[O-])cc1 (stereo not given)	-1.2	7	3	-7.0	5	i	1	0.71	3.5	0.8
CC(C)(Cc1ccc(O)cc1)NC(=O)CC(=O)N=Nc1c(O)[nH]c2cc(Br)ccc12	1.6	-12	-6	3.2	8	/	0	0.68	8.8	0.1
Cc1ccc(C(=O)Nc2ccn(Cc3ccc(F)cc3)n2)o1	/	/	/	/	1	/	-12	0.68	-2.0	-0.9
COc1ccc(CCNC(=O)c2cc(S(=O)(=O)N3CCCCC3)ccc2Cl)cc1	-11	9	7	-0.2	/	i	/	0.68	3.3	/
CN1C(=O)C(CC(=O)O)S/C1=N\N=C\c1ccc(O)cc1O (stereo not given)	1.9	2	2	-1.8	-2	i	-16	/	/	-6.4
CC1CN(C(=O)C2(C)CC2(Cl)Cl)CC(C)O1 (stereo not given)	/	/	/	/	-2	/	1	0.66	-0.1	0.1
CCn1nc(Cc2cccc3ccccc23)c(C#N)c1N	-1.8	-27*	-12*	-3.8*	-4	i	-14	0.68	1.7	0.0
Nc1ccc(-n2cc(-c3ccccc3)[nH]c2=S)cc1	-1.6	-1	7	-2.1	-7	i	-4	0.67	1.0	-0.2
O=C(Cn1cnc2cc([N+](=O)[O-])ccc2c1=O)Nc1ccc(Br)cc1	-4.3	0	-2	-0.3	2	i	68*	0.63	-2.8	0.2
Cc1ccccc1Cn1ccc(NC(=O)c2cc3ncc(Br)cn3n2)n1	5.6	8	7	-3.7	-7	i	-7	0.69	-1.7	0.9

Among those listed so far, two contain fluorine.
SMILES	MLL AF4-AF9 inh	Ecoli rRNA inh	Ecoli rRNA inh OD600	Ecoli rRNA inh RFP	Beta cell apopt	FGF22 binding	T cruzi inh	E coli growth	UCH37 DUB inh	Bfl-1 A1 inh
COc1cc(NS(=O)(=O)c2ccc(N/C=C\C(=O)c3ccc(F)cc3)cc2)nc(OC)n1	1.0	0	-1	5.8	0	i	7	0.63	-116	0.3
Cc1ccc(C(=O)Nc2ccn(Cc3ccc(F)cc3)n2)o1	/	/	/	/	1	/	-12	0.68	-2.0	-0.9

More entries follow.
SMILES	MLL AF4-AF9 inh	Ecoli rRNA inh	Ecoli rRNA inh OD600	Ecoli rRNA inh RFP	Beta cell apopt	FGF22 binding	T cruzi inh	E coli growth	UCH37 DUB inh	Bfl-1 A1 inh
Cc1ccc(C(=O)n2nc(-c3cccnc3)nc2N)cc1	/	/	/	/	-2	/	3	0.66	2.4	0.5
Cc1cccc(NC(=O)CCCc2ccccc2)c1C	-1.6	2	9	-1.5	-6	i	5	0.7	0.4	-0.7
CCc1nc2ccccc2nc1N1CCN(S(=O)(=O)c2ccccc2)CC1	-1.3	-18	-19	-2.2	-12	i	19	0.66	1.2	0.8
CCC(=O)c1cc(F)c(N2CCN(C(=O)c3ccco3)CC2)cc1C	-1.9	-2	-26	-2.3	19	i	-5	0.69	5.9	0.5
COc1ccc2nc(NC(=O)CS(=O)(=O)c3ccc(C)cc3)sc2c1	0.0	-9	-18	-0.1	-6	i	-2	0.69	-5.4	0.2
CC1CCCN(S(=O)(=O)c2cc3c4c(c2)C(C)C(=O)N4CCC3)C1 (stereo not given)	-0.2	-2	-1	1.4	-4	i	-7	0.7	-1.1	-0.7
COc1ccc(NC(=O)[C@H](C)NC(=O)C2CCN(S(=O)(=O)c3ccc(OC)cc3)CC2)cc1	0.0	8	15	0.6	/	i	-24	0.68	0.7	1.8
CCOC(=O)c1ccoc1CSCC(=O)N1CCN(S(=O)(=O)c2ccc(C)cc2)CC1	/	/	/	/	-5	/	10	0.73	2.8	0.4
COC(=O)C1CCN(C(=O)COC(=O)CNC(=O)c2ccc(Cl)cc2Cl)CC1	-2.4	2	3	-2.8	-5	i	/	0.68	1.5	1.7
Brc1cccc(OCCCCN2CCCCC2)c1	/	/	/	/	-1	/	23	0.64	1.8	-0.2
Cc1cc(/C=N/O)c(C)n1-c1ccc(Br)cc1	7.8	/	/	/	-2	i	5	/	/	0.4
CCN(CC)S(=O)(=O)c1ccc(Cl)c(NC(=O)COC(=O)c2cc(-c3ccccc3Cl)nc3ccccc23)c1	-4.2	/	/	/	2	i	6	0.71	1.2	-0.6
CCn1c(CCNC(=O)c2ccc(Cl)cc2Cl)n[nH]c1=S	/	/	/	/	1	/	-6	0.72	0.6	1.3
CC(C)C(=O)Nc1cccc2nsnc12	-3.9	-4	13	1.2	-10	i	3	0.61	5.0	0.1
O=C(O)CCC1(CCC(=O)O)CCCC(CCC(=O)O)(CCC(=O)O)C1=O	2.4	18	1	3.3	/	i	/	0.67	-2.5	/
CCNc1nc(NCC)n2c(SCC(=O)N(CC)C3CCCCC3)nnc2n1	/	/	/	/	/	/	13	0.65	-0.8	-0.3
C#CCOCCOCCOCCNc1nc(N2CCN(C(=O)C([C@@H](C)O)n3cc([C@@H](N)CCCCN)nn3)CC2)nc(N2CCN(C(=O)[C@H](CCC(=O)O)n3cc([C@@H](N)CCCCN)nn3)CC2)n1 (stereo not given in full)	17	9	5	4.2	2	i	/	/	4.1	-0.7
COCCn1c(=O)[nH]c(=O)c2c(C(F)(F)F)cc(-c3cccs3)nc21	/	/	/	/	-2	/	-44	0.69	i	-0.8
O=C(/C=C/c1ccc(F)cc1)NC(=S)Nc1ccccc1	0.2	-5	17	-0.6	1	i	-2	0.67	1.4	0.7
O=C(CSc1ccccc1C(=O)NCc1ccccc1)NC1CCCCCCC1	1.3	0	-11	-5.5	-5	i	16	0.69	0.7	0.0
C[C@H](NC(=O)c1nc[nH]c1C(=O)N[C@@H](CCCCNC(=O)OC(C)(C)C)C(=O)OC(C)(C)C)c1ccccc1	/	/	/	/	1	/	16	/	-0.3	0.8
O=C(COc1ccccc1[N+](=O)[O-])NCC1(N2CCCCC2)CCCCC1	2.7	/	/	/	5	i	/	0.65	5.1	1.9
COc1ccc(C(=O)N2CCN(c3ncccn3)CC2)cc1[N+](=O)[O-]	-0.6	5	14	-0.6	/	i	-3	0.66	3.7	-0.4
COc1cc(C2=NOC(C(=O)Nc3cc(C)on3)C2)cc(OC)c1OC (stereo not given)	-23	6	4	-2.5	0	i	-7	0.7	-1.4	1.7
COc1cc2ccccc2cc1C(=O)Nc1ccc(Cl)cn1	-1.7	/	/	/	/	i	6	0.76	-28	-0.5

Additional structures follow:
SMILES	MLL AF4-AF9 inh	Ecoli rRNA inh	Ecoli rRNA inh OD600	Ecoli rRNA inh RFP	Beta cell apopt	FGF22 binding	T cruzi inh	E coli growth	UCH37 DUB inh	Bfl-1 A1 inh
CC(C)C(=O)NNC(=O)c1cc2sccc2s1	2.9	2	5	-2.1	1	i	/	0.62	1.3	-0.1
COc1ccccc1C/C(N)=N/OC(=O)c1ccco1	/	/	/	/	-2	/	4	0.7	5.3	0.3
COCCN1C(=O)/C(=C/c2ccc(OCc3ccc(C(=O)O)cc3)c(OC)c2)SC1=Nc1ccccc1	/	/	/	/	/	/	19	0.66	15	-0.3
COc1ccc(OCC(=O)N2c3ccc(C)cc3C3CN(C)CCC32)cc1 (stereo not given)	-0.6	3	8	2.4	-2	i	-5	0.72	2.6	0.3
CCOC(=O)c1c(C)[nH]c(C(=O)Cn2c(=O)c3c(ncn3CC)n(Cc3ccccc3)c2=O)c1C	/	/	/	/	0	/	27	0.75	6.2	0.1
COCc1nc2ccccc2n1CCc1ccccc1	-4.2	6	0	-1.8	1	i	-12	0.67	2.9	-0.7
Nn1c(SCC(=O)Nc2nc3ccccc3s2)nncc1=O	3.0	3	-1	-1.1	-14	/	-1	/	/	-1.6
NCC1CC2c3ccccc3C1c1ccccc12 (stereo not given)	0.0	11	9	3.1	-4	i	-7	0.68	5.3	0.0
COC(=O)Nc1ccc([N+](=O)[O-])cc1OC	/	/	/	/	5	/	-2	0.69	8.6	-0.8
COC(=O)Cn1c(=NC(=O)C2CC2)sc2c(C)cc(C)cc21	1.2	8	-1	-0.3	-3	i	2	0.79	3.4	0.0
CC(C)NC(=O)C1CCN(C2CCN(C(=O)c3cc4c(s3)CCCCC4)CC2)CC1	1.5	7	1	-0.6	6	i	1	0.67	-0.7	0.7
Cc1ccc2nc(SCC(=O)NC3CCCC3)[nH]c2c1	-1.9	-5	-4	3.4	/	i	6	0.71	3.9	1.2
CC1CCN(C2=NN3C(=N)/C(=C\c4ccc(OC(=O)c5ccco5)cc4)C(=O)N=C3S2)CC1	4.0	8	1	-3.0	-1	i	-3	/	/	0.4
O=c1c2sccc2[nH]c(=S)n1Cc1ccccc1	/	/	/	/	2	/	-19	0.69	2.4	-0.2
COc1ccccc1/C=C(\C)C(=O)c1c(C)cc(C)[nH]c1=O	-32	0	4	-1.2	-2	i	-3	0.65	5.9	2.2

Screening results from PubChem BioAssay.
